TRPML1 inh – human mucolipin-1 channel inhibition. AID 624415. TRPML1-inducible cells, Ca2+ dye fluorescence, FDSS; stronger effect = lower value; inhibition of EC80 agonist-evoked calcium signal. 390,000 compounds, 0.02% hits. Q9GZU1. activity change, negative = inhibition, % (concentration not given with the values); in the data active means activity change below about -50%; inconclusive means about -30% to -50%; inactive means above about -30%;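 also: stimulus is agonist 54-4 at its EC80 concentration; % is scaled to controls: 0 for no effect and ±100 for the full control effect; the text of the record puts the active cut at -80%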
Target sequence (Q9GZU1 whole entry, looked up): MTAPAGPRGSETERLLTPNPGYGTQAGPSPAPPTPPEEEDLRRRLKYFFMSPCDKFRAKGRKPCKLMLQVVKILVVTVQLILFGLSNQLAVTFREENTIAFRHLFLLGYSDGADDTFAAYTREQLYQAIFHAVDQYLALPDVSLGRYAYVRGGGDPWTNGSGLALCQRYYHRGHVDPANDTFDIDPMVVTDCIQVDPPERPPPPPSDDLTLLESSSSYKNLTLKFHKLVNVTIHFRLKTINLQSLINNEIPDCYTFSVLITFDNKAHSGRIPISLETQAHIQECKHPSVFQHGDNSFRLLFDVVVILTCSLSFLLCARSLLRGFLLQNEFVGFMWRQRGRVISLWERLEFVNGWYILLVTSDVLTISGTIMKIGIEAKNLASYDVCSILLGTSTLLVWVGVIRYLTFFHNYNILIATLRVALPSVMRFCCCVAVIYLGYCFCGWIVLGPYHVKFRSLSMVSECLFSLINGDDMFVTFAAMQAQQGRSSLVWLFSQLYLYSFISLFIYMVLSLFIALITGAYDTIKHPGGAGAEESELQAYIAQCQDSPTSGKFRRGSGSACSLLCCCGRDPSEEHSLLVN
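Tet-induced TRPML1-DL cells loaded with Ca8 no-wash calcium dye were read kinetically on FDSS. Compound addition was followed by EC80 agonist 54-4 (4 uM final); inhibition was read over 110 s.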
D2 agonist – human D2 receptor agonism in beta-arrestin assay; P14416; DiscoveRx PathHunter D2 beta-arrestin, luminescence, 90 min; 100% = 57 uM dopamine signal; activation, % (concentration not given with the values); 360,000 compounds, 0.084% hits; in the data active = activation above about 40%; inconclusive = about 15% to 40%; inactive = below about 15%; also: the text of the record calls up to 30% inactive
Target sequence (P14416 whole entry, looked up): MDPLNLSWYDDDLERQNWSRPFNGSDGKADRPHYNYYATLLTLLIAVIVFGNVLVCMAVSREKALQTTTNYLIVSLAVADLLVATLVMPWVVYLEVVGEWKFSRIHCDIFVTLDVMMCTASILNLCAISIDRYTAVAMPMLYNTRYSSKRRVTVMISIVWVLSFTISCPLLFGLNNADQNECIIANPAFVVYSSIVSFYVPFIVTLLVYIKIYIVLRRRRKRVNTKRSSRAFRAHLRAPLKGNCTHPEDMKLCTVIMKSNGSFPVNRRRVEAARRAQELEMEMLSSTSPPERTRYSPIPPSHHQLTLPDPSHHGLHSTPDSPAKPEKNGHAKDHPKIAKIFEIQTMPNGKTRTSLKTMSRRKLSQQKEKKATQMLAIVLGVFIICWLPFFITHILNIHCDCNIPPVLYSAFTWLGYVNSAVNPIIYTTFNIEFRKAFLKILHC
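DiscoveRx PathHunter D2 beta-arrestin cells (2,100/well) attached overnight, then compound-stimulated 90 min at 37 C in HBSS/10 mM HEPES/0.1% Tween-20 buffer; beta-galactosidase complementation read by luminescence after 1 h at ambient temperature. Dopamine 57 uM final (EC100) as control.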
PINK1 expr mod – modulators of PINK1 expression; Potency, µM (series often up to 76.6 µM), for the others: at the top dose activation (PINK1 increase), hits mostly activators; 410,000 compounds, 0.2% hits; PINK1 immunofluorescence, high-content cytometry, 24 h; active = well fitted activation curve with a large enough effect; inconclusive = small, poorly fitted or top-dose-only effect; inactive = flat fitted curve, though single readings scatter; cell line not stated here;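 also: potency is read from the fitted curve at half-maximal effect; % of control where 0% means no effect; nearly all actives have a fitted effect of over 65% in size; a mitochondrial uncoupler was the plate control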
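PINK1 protein, normally rapidly degraded, was detected by immunofluorescence after 24 hour compound treatment of a stable cell line. Titration data (5 concentrations) came from laser-scanning cytometry, with CCCP-treated wells as controls.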
Six1-Eya2 inh – inhibitors of human Six1/Eya2 interaction; activity change, % (concentration not given with the values); AlphaScreen GST-Six1/His-Eya2 binding, biochemical; stronger effect = lower value; control for the full effect not named in the record; 360,000 compounds, 0.56% hits; AID 651725; in the data active = activity change below about -65%; inconclusive = about -30% to -65%; inactive = above about -30%; also: % is scaled to controls: 0 for no effect and ±100 for the full control effect
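GST-Six1 + His-Eya2 (5X stock: 250/500 nM); Tris pH 8.0, 300 mM NaCl, 0.05% BSA, 0.02% Tween 20; GSH donor/Ni acceptor beads; 1 h 37 °C dark; AlphaScreen readout.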
CtBP-E1A blk – CtBP/E1A binding inhibition | AlphaScreen GST-E1A/His-CtBP binding, 1536-well; stronger effect = lower value; control for the full effect not named in the record | activity change, % (concentration not given with the values) | 340,000 compounds, 0.49% hits | AID 651724; in the data active means activity change below about -65%; inconclusive means about -30% to -65%; inactive means above about -30%; also: % is scaled to controls: 0 for no effect and ±100 for the full control effect
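Protein mix (5X: 125 nM each GST-E1A, His-CtBP) was incubated with pinned compound 2 h at 37 deg C in dark, in 50 mM Tris pH 8.0 buffer with 300 mM NaCl. Glutathione donor and nickel acceptor beads followed; AlphaScreen signal read after 1 h.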
TRPML1 agonist – activates the human TRPML1 channel; Q9GZU1; TRPML1-expressing cells, Ca2+ dye fluorescence, FDSS; host cell line not named in the record; reference of the full effect not given here; activation, % (test concentration not listed); 410,000 compounds, 0.12% hits; AID 624414; in the data active = activation above about 50%; inconclusive = about 30% to 50%; inactive = below about 30%; also: 0% is about no effect; the text of the record puts the active cut at 80%
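Tet-induced TRPML1-DL cells, 1,500 per well, cultured overnight, were loaded with a no-wash Ca2+ dye for 45–90 min. Calcium fluorescence was recorded on the FDSS for 110 s after compound addition, before the EC80 agonist (4 uM 54-4) was added.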
Numbers without * were called inactive; ? = inconclusive; nt = no result given; & = joins results of further samples; [ ] = another dose, or the depositor's remark.

SMILES	TRPML1 inh	D2 agonist	PINK1 expr mod	Six1-Eya2 inh	CtBP-E1A blk	TRPML1 agonist
COc1ccc(CCN2CC(C(=O)NC3CCOCC3)CCC2=O)cc1 (stereo not given)	5	-1.0	-1.7%	0	6	-0.5
O=C(Cn1cnc2ccccc2c1=O)NCc1ccco1	8	-1.8	-2.0%[38.3 µM]	7	9	-0.4
O=C(Nc1ccccc1[N+](=O)[O-])c1cncc(Br)c1	4	-3.7	-1.8%	-8	-6	1.3
CCc1ccccc1N(C(=O)CNC(=O)c1ccco1)C(C(=O)NC1CCCC1)c1cccnc1 (stereo not given)	3	-2.5	6.8%	-3	1	-0.6
COc1ccc(CCC(=O)OCC(=O)N(C)c2c(N)n(Cc3ccccc3)c(=O)[nH]c2=O)cc1	4	1.3	6.5%	1	1	-0.4
Cc1cc(C)n(-c2nc3sc4c(c3c3nnc(SC(C)C)n23)CC(C)(C)OC4)n1	-19	-0.2	1.0%	0	8	0.2
O=C1CC(C(=O)O)NC(=S)N1 (stereo not given)	-9	3.7	4.3%	6	4	-0.1
CC(C)c1ccc(CNc2ncc(Br)cn2)cc1	-17	-1.8	5.8%	13	14	1.3
O=C(Nc1ccccc1)N1CCN(C(=O)c2nsc3ccccc23)CC1	12	nt	-1.3%	nt	nt	-0.2
CC1(C)Cc2c(c(=S)nc(-c3ccccc3)n2CCCN2CCOCC2)CO1	-5	-3.2	2.9%	9	2	1.0
Cc1ccc(NC(=O)c2ccncc2)cc1S(=O)(=O)N(C)C	5	0.9	-1.5%	-3	2	-0.5
O=c1[nH]c(CN2CCN(c3ccccc3Cl)CC2)nc2ccsc12	0	-1.6	-0.7%	0	-1	-0.3
CC1CCCC(NC(=O)CCC(=O)c2ccc(F)cc2)C1C (stereo not given)	nt	-6.2	0.5%	-1	5	nt
O=C(/C=C/c1cccs1)c1cc(Br)ccc1OC(=O)N1CCOCC1	4	-5.1	-0.8%	1	-2	-0.2
C[C@]1(C(=O)NCCCNc2ncc(C(F)(F)F)cc2Cl)C=C[C@@H](Cc2ccccc2)N1C(=O)c1ccccc1	-1	0.5	2.6%	2	4	0.3
O=Cc1ccc(-n2nncc2-c2ccc([N+](=O)[O-])cc2)cc1	27	-0.8	0.9%	-1	0	0.3
COc1ccc(CCNC(=O)c2cc3cc(Cl)ccc3nc2N)cc1OC	nt	nt	4.4%	-11	-6	-0.8
NS(=O)(=O)c1ccc(NC(=O)CN2CCc3ccccc3C2)cc1	-1	-6.7	0.2%	-22	0	-0.8
Cc1ccc(C2CC(=O)c3cnc(N4CCc5ccccc5C4)nc3C2)cc1 (stereo not given)	0	-2.6	-0.4%	0	-1	-0.9
CC(C)(C)NC(=O)Cn1cc(S(=O)(=O)Cc2ccccc2Cl)c2ccccc21	32	nt	0.0%	nt	nt	-0.3
Cc1cc2c(cc1C)NC(CC(=O)Nc1cccc(C)c1C)C(=O)N2 (stereo not given)	16	nt	1.8%	nt	nt	-0.2
Cn1c(CN2CCCC2)c(C#N)c2ccccc21	-2	-3.8	3.7%	-2	nt	0.5
CC(Oc1ccc2c3c(c(=O)oc2c1)CCCC3)C(=O)NCCN1CCOCC1 (stereo not given)	-7	-1.4	-1.4%	-1	nt	1.5
C#CCOCCOCCOCCNc1nc(N2CCN(C(=O)[C@H](CCC(=O)O)n3cc(C(N)CC(C)C)nn3)CC2)nc(N2CCN(C(=O)[C@H](Cc3ccc(O)cc3)n3cc(C(N)CC(C)C)nn3)CC2)n1 (stereo not given in full)	19	-3.1	-0.8%	-7	-11	-0.7
Cc1ccc(C(=O)O/N=C(\N)c2ccccn2)cc1	-6	0.3	10%	5	4	2.0
CCCc1nnc(NC(=O)c2nc(S(=O)(=O)Cc3ccc(C)cc3)ncc2Cl)s1	17&24	-7.6	1.1%&-1.3%	?	-24	-0.7&-0.3
Cc1cc(-c2ccc(Cl)cc2)c2cnn(C(C)C)c2n1	-21	7.4	0.4%	19	16	2.0
O=C(CCc1ccc(S(=O)(=O)N2CCOCC2)cc1)N/N=C/c1cccc(O)c1	-23	-4.7	3.5%	-2	0	-0.1
Cc1ccn2cc(-c3cccc(S(=O)(=O)N4CCCC4)c3)nc2c1	35	8.4	4.8%	-16	-13	1.3
O=C(CN1CCSC1=NCc1ccccc1)c1ccc(Cl)c(Cl)c1	7	-2.2	?	44	38	2.2
CCc1ccc(OCC(=O)N(C)C2CCS(=O)(=O)C2)cc1 (stereo not given)	0	-3.4	1.3%	0	0	-0.9
CC(C)c1ccc(NC(=O)CCc2ccccc2)cc1	17	1.2	7.7%	30	-2	0.1
O=C(CC1C(=O)NCCN1CC1CCCCC1)NCCc1ccc(F)cc1 (stereo not given)	-6	3.2	-0.3%	-7	-4	0.1
Cc1cc2[nH]c(=O)c(=O)[nH]c2cc1S(=O)(=O)NCC(C)c1ccccc1 (stereo not given)	-6	-1.0	-1.5%	-5	2	-0.1
CCC12C(=Nc3c(Cl)cccc31)C[C@@H]1CCN3C(=O)CCC[C@H]2[C@H]13 (stereo not given in full)	14	3.6	1.0%	0	6	-1.3&-0.7
CC1CCCCN1S(=O)(=O)c1ccc(C(=O)Nc2sccc2C(N)=O)cc1 (stereo not given)	28	3.5	1.1%	-15	-16	-1.0
CCCOc1ccccc1C(=O)N(Cc1ccc(C)o1)C1CCS(=O)(=O)C1 (stereo not given)	4	5.1	3.3%	-5	nt	-0.6
COc1cc(OC)cc(C(=O)NNC(=O)C2CSC3(C)CCC(=O)N23)c1 (stereo not given)	1	-1.4	0.9%	-1	nt	-0.5
CCCCn1c(-c2ccncc2)nc2c1c(=O)[nH]c(=O)n2CC(C)C	-9	-3.7	1.6%	-3	4	0.1
CCN(CC)c1ccc(C2C(C(N)=O)=C(C)Nc3ncnn32)cc1 (stereo not given)	-9	nt	-4.6%	nt	nt	0.8
CC(=O)[C@@H]1[C@@H](C(=O)c2ccc(C)cc2)[C@]2(C(=O)Nc3ccccc32)[C@H]2C=Cc3cc(F)ccc3N12	0	-1.3	-1.2%	3	-3	2.5
CCC(C)NC(=O)Cn1c(=O)sc2ccccc21 (stereo not given)	9	-1.4	0.9%	4	10	-0.8
O=C(NCCCNC(=O)c1c(F)cccc1F)c1c(F)cccc1F	10	-0.5	0.6%	9	15	0.1
CC(C)(C)NC(=O)CSc1nc(-c2ccc(F)cc2)cs1	-2	-1.6	2.2%	11	-7	-0.8
Cc1cc(S(=O)(=O)N2CCN(c3ccccn3)CC2)ccc1F	-7	0.4	1.9%	1	4	0.0
CCC(C)C(NC(=O)C(Cc1ccc(O)cc1)NC(=O)OCc1ccccc1)C(=O)OC (stereo not given)	nt	8.2	0.2%	0	1	-1.0
N=C1S/C(=C\c2ccccc2F)C(=O)N1c1ccc(F)cc1	4	-1.5	2.1%	1	nt	0.3
CC1CCCCC1NC(=O)c1cccc(S(=O)(=O)N2CCN(C)CC2)c1 (stereo not given)	-1	1.8	0.6%	10	1	-0.6
O=C1CC(c2ccc(F)c(Br)c2)C2=C(CCCC2=O)N1 (stereo not given)	-19	2.1	-1.3%	1	3	-0.8
C=CCn1cc(/C=N\NC(=O)c2cc3c(ccc4ccccc43)o2)c2ccccc21	1	-0.5	5.3%	2	-2	-0.7

Whole records as entered above:
`CC(C)(C)NC(=O)Cn1cc(S(=O)(=O)Cc2ccccc2Cl)c2ccccc21` as listed: TRPML1 inh = 32; D2 agonist = nt; PINK1 expr mod = 0.0%; Six1-Eya2 inh = nt; CtBP-E1A blk = nt; TRPML1 agonist = -0.3
`COc1ccc(CCN2CC(C(=O)NC3CCOCC3)CCC2=O)cc1` (stereo not given) as listed: TRPML1 inh = 5; D2 agonist = -1.0; PINK1 expr mod = -1.7%; Six1-Eya2 inh = 0; CtBP-E1A blk = 6; TRPML1 agonist = -0.5

(further entries)
SMILES	TRPML1 inh	D2 agonist	PINK1 expr mod	Six1-Eya2 inh	CtBP-E1A blk	TRPML1 agonist
COc1ccc(NC(=O)CCOc2ccccc2)c(OC)c1	-5	-2.7	1.5%	1	5	0.5
O=C(CCCN1C(=O)c2ccccc2C1=O)N1CCC(c2ccccc2)C1 (stereo not given)	-6	-2.1	nt	1	6	0.5
Cc1ccc(F)c(S(=O)(=O)NC(=O)C2(C)CCN2C(=O)CCC2CCCC2)c1 (stereo not given)	nt	-2.9	0.6%	5	4	-0.8
O=C(CSC1=Nc2ccccc2C2=NC(CC(=O)N3CCN(c4ccccc4)CC3)C(=O)N12)NCC1CCCO1 (stereo not given)	13	0.8	0.3%	-13	-7	3.5
CCN(CC)CCNC1=CC(=O)OC12CCCCC2	-19	-4.2	-0.3%	9	-4	0.2
CN(C)C(CNC(=O)/C=C/c1cccc(Cl)c1)c1ccccc1 (stereo not given)	-5	-4.1	-0.4%	0	4	-0.6
CCOc1ccc(OCC)c(NC(=O)C2CCN(S(=O)(=O)c3cccnc3)CC2)c1	3	-0.6	0.3%[38.3 µM]	1	0	-0.4
CCOc1ccc(NC(=O)CN(C)C(=O)c2ccncc2)cc1OCC	-24	4.0	2.9%	1	-1	0.4
Cc1ccc(Cn2c(C(C)Nc3nc(-c4ccc(Cl)cc4)cs3)nc3cc(C(=O)NCCCO)ccc32)cc1 (stereo not given)	-7	2.9	?	-8	-3	-0.6
CC(=O)N1c2ccc(S(=O)(=O)NCc3ccccc3Cl)cc2CC1C (stereo not given)	-2&-8	-0.4	1.4%&1.9%	2	5	-1.0&2.0

Ordered by heavy-atom count (low to high): 3 of the compounds above.
SMILES	TRPML1 inh	D2 agonist	PINK1 expr mod	Six1-Eya2 inh	CtBP-E1A blk	TRPML1 agonist
N=C1S/C(=C\c2ccccc2F)C(=O)N1c1ccc(F)cc1	4	-1.5	2.1%	1	nt	0.3
NS(=O)(=O)c1ccc(NC(=O)CN2CCc3ccccc3C2)cc1	-1	-6.7	0.2%	-22	0	-0.8
CC(=O)[C@@H]1[C@@H](C(=O)c2ccc(C)cc2)[C@]2(C(=O)Nc3ccccc32)[C@H]2C=Cc3cc(F)ccc3N12	0	-1.3	-1.2%	3	-3	2.5

Following part
SMILES	TRPML1 inh	D2 agonist	PINK1 expr mod	Six1-Eya2 inh	CtBP-E1A blk	TRPML1 agonist
Cc1cc(Br)cc2c1N(Cc1ccccc1OC(C)C)C(=O)C2=O	50	nt	20%	nt	nt	2.4
O=C1NC(Cc2ccccc2)C(=O)N1CC(=O)N1CCCc2ccccc21 (stereo not given)	5	0.4	0.1%	-2	-7	0.2
COc1ccc(C2Nc3ccccc3-c3cc(C)nn32)c(OC)c1 (stereo not given)	0	nt	-0.6%	nt	nt	0.4
COC(=O)C1C(=O)C(C(=O)c2ccc([N+](=O)[O-])cc2)C(=O)CC1(C)C (stereo not given)	8	1.3	-0.2%	4	-2	0.5
CCOC(=O)N1CCN(C(=O)c2ccc3c(c2)NC(=O)C(N2CCOCC2)S3)CC1 (stereo not given)	36	0.0	2.0%	6	7	-0.5

Random draw from the library, and some 1% of all compounds hit somewhere here.
